GLA inh pH 4.5: qHTS Assay for Inhibitors of Human alpha-Galactosidase at pH 4.5 | AID 1467, 2008 | purified enzyme, 4-MU-alpha-Gal fluorescence, pH 4.5 | Alpha-galactosidase A (Homo sapiens), P06280 | activity change, negative = inhibition, % at 105 µM | 230,000 tested, under 10 active; inconclusive = small, poorly fitted or top-dose-only inhibition, or a rising curve; inactive = flat fitted curve, though single readings scatter; no compound was filed as active;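 note: 0% = full activity with enzyme and -100% = basal without enzyme; dose as in the result columns while the protocol names 77 µM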
miR-21 reporter: qHTS Assay for Modulators of miRNAs and/orActivators of miR-21. HeLa miR-21 FLuc reporter, luciferase, 48 h. Potency, µM (series often up to 38.3 µM), inactives show top-dose reporter change, positive = more light. 340,000 tested, under 10 active. AID 2288, 2010; active = well fitted rising curve with a large enough effect; inconclusive = small, poorly fitted or top-dose-only effect; inactive = no such curve, though single readings can be large or run the other way;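 note: % of control where 0% means no effect; miR-21 action dims this reporter so a rising signal means less miR-21 action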
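HeLa cells endogenously expressing miR-21, stably carrying CMV-driven firefly luciferase with a downstream miR-21 binding site, 2000 cells/well. Titrations up to approximately 40 uM, 48 hours; luciferase luminescence read.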
Rango release inh: qHTS Assay for Inhibitors of RanGTP induced Rango (Ran-regulated importin-beta cargo) - Importin beta complex dissociation; Snurportin-1 (Homo sapiens) + GTP-binding nuclear protein Ran (Homo sapiens) + Importin …; Biochemical FRET Rango-importin beta, RanGTP-induced dissociation; Potency, µM (titrated, usually from 46.1 µM), without a hit: at the highest dose activity change, negative = inhibition; hit rate 0.071% among 340,000; AID 540253, 2011; active means falling FRET ratio curve, often poorly fitted, with flat reads before Ran was added; inconclusive means other falling curves, or compound fluorescence or quenching; inactive means flat or rising ratio curve;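 note: potency is the fitted concentration of half-maximal effect; % of control where 0% means no effect; nearly all actives have a fitted effect of over 45% in size; -100% = wells without RanGTP and RCC1; the record marks most hits as doubtful in a second field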
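Recombinant Rango FRET biosensor (EYFP–snurportin 1 IBB–cerulean CFP10) at 0.1 uM premixed with 0.25 uM importin beta in PBS, 1 mM DTT, 0.02% Tween-20, 0.1% BSA. Compound added 5 min; RanGTP-RCC1 (0.6 uM Ran, 2 mM GTP, 0.2 uM RCC1) then triggers release, read at 45 min.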
Rango-impB inh: qHTS Assay for Inhibitors of Rango (Ran-regulated importin-beta cargo) - Importin beta complex formation. Importin subunit beta-1 (Homo sapiens), Q14974. Rango CFP/YFP FRET sensor + importin beta, 45 min. Potency, µM (series often up to 92.2 µM), inactives show at the top dose inhibition of complex formation. hit rate 0.031% among 340,000. AID 540263, 2011; active = rising FRET ratio curve, often small or poorly fitted; inconclusive = mostly compound fluorescence or quenching in the first reads; inactive = flat curves in all reads;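 note: potency is the fitted concentration of half-maximal effect; 0% = DMSO wells and 100% = buffer wells lacking importin beta; nearly all actives have a fitted effect of over 15% in size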
Target sequence (Q14974 whole entry, looked up): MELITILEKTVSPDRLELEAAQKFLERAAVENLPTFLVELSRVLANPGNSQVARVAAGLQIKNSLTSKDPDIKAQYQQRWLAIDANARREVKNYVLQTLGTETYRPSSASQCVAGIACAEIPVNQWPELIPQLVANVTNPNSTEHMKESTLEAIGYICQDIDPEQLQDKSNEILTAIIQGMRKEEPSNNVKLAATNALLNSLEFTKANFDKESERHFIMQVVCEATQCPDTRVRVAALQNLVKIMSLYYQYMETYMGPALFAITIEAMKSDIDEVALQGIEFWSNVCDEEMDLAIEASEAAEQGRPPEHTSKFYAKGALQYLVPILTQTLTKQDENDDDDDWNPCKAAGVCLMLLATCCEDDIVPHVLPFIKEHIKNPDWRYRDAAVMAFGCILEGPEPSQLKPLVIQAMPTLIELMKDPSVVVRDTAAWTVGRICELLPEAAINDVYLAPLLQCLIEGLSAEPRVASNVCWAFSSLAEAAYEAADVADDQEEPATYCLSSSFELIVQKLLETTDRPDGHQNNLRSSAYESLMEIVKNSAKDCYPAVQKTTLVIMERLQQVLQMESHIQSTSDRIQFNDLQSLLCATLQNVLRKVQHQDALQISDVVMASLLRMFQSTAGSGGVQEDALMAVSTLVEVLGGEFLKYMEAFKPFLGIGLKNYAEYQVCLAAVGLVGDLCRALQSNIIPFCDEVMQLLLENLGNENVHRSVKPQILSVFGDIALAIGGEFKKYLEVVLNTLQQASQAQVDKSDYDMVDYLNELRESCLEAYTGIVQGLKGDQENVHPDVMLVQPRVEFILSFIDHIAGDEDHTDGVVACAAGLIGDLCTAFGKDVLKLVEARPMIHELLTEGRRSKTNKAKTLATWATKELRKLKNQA
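Inhibition scored from the CFP 486 nm/YFP 530 nm FRET ratio 45 min after adding 0.125 microM importin beta to 50 nM Rango biosensor preincubated 5 min with compound (room temperature, PBS with DTT, Tween-20, BSA). No-importin wells as positive control.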
Starred values were filed as active, the others as inactive; ? = inconclusive; . = no result given. A portion of the library; the hit share may differ from the screen's.

Rango-impB inh	miR-21 reporter	Rango release inh	GLA inh pH 4.5	Molecule
-3.8%	16%	2%	-12	CCC(=O)N(Cc1c(C)nn(-c2ccccc2)c1Cl)c1ccc(Cl)cc1
-2.6%	1%	-1%	.	Cc1ccccc1NC(=O)NC1(C(=O)N2CCC(O)CC2)CCCCC1
-0.7%	0%	-3%	.	Cc1ccc(S(=O)(=O)N(C)C)cc1NC(=S)Nc1cccc2ccccc12
4.0%	1%	26%	.	O=C(CCOc1ccccc1)Nc1ccnn1C1CCN(CCc2ccccc2)CC1
1.5%	-58%	-5%	-9	CCN=c1scc(C)n1/N=C/c1ccsc1
2.2%	.	3%	.	COc1ccc(-c2nc3c(c(SCC(=O)N4CCCC4)n2)COC(C)(C)C3)cc1
?	.	3%	.	Cc1cc(C)c(NC(=O)CNC(=O)c2ccc3ncsc3c2)c(C)c1
0.0%	0%	-13%	7	CCC(CC)NC(=O)CC(c1ccccc1)c1ccccc1
-1.3%	-6%	-11%	.	CC(C)(C)[C@H]1CCC(=O)N([C@H](CSc2ccccc2)Cc2ccccc2)CC1
0.5%	-1%	9%	-2	Cc1nn(C)c(C)c1CN(Cc1nc(-c2cc(F)ccc2F)oc1C)C1CC1
-0.9%	-6%	-10%	12	CCc1ccc(S(=O)(=O)ON2C(=O)c3ccccc3C2=O)cc1
6.5%	2%	7%	.	Cc1nn(C(C)(C)C)c(NC(=O)c2ccccc2)c1C#N
?	-4%	-5%	14	COc1ccc(S(=O)(=O)NNC(=O)c2ccccc2-n2cccc2)cc1
-1.1%	-10%	0%	.	CCN(CC)CCN(C(=O)c1cc(Cl)sc1Cl)c1nc2cc3c(cc2s1)OCO3
0.5%	-4%	-4%	-13	Cc1cc(C(=O)Nc2ccccc2N2CCOCC2)ccc1[N+](=O)[O-]
7.1%	9%	11%	-4	O=C(NCc1ccccc1)C12CN(Cc3ccccc3)CC1C(c1ccc([N+](=O)[O-])cc1)=NO2 (centres undefined)
-2.8%	13%	1%	.	CCCCOCCCN1CC(=O)N2[C@@H](Cc3c([nH]c4ccccc34)C2(C)C)C1=O
-0.8%	.	4%	.	Cc1c(C(=O)N2CCN(S(=O)(=O)c3cc(F)ccc3F)CC2)oc2ccccc12
0.6%	2%	-1%	.	O=C(CNC(=O)c1cccs1)N/N=C/c1ccc(Cl)cc1
-0.4%	-66%	-2%	3	c1ccc(Nc2ncnc3c2oc2ccccc23)cc1
2.4%	-15%	0%	.	Cc1cccc(NC(=O)[C@H](NC(=O)[C@@H]2Cc3ccccc3CN2)c2ccccc2)c1
-0.4%	5%	?	-8	COc1ccc(C(=O)OC(C)C(=O)Nc2cc(C(F)(F)F)ccc2Cl)c(OC)c1OC (centres undefined)
-0.8%	4%	-21%	.	CC(C)c1ccc(C(=O)OC2CCOC2=O)cc1 (centres undefined)
-2.8%	1%	-8%	6	Cc1ccc(N=C2NC(=O)C(CC(=O)O)S2)cc1 (centres undefined)
-0.5%	.	?	.	CN(C)C(=O)c1ccc(NC(=O)COC(=O)Cn2cc(C(F)(F)F)ccc2=O)cc1

The list goes on, starting with the last 2 of the part before.
Rango-impB inh	miR-21 reporter	Rango release inh	GLA inh pH 4.5	Molecule
-2.8%	1%	-8%	6	Cc1ccc(N=C2NC(=O)C(CC(=O)O)S2)cc1 (centres undefined)
-0.5%	.	?	.	CN(C)C(=O)c1ccc(NC(=O)COC(=O)Cn2cc(C(F)(F)F)ccc2=O)cc1
2.0%	.	-2%	.	COc1ccccc1-n1cnnc1SC(C)C(=O)NCC1CCCO1 (centres undefined)
-4.3%	0%	3%	-2	COC(=O)c1c(O)c2c([nH]c1=O)CCCC2
-0.7%	5%	-7%	-16	CC(C)CCOC(=O)/C(=C/c1ccco1)NC(=O)/C=C/c1ccccc1
-9.7%	-4%	-27%	-3	O=C(CCCO)NNc1c2ccccc2nc2ccccc12
-2.6%	-3%	6%	.	CC(C)OC(=O)C1Cc2ccccc2CN1S(=O)(=O)c1cccs1 (centres undefined)
9.4%	-22%	11%	-6	CCOC(=O)c1ccc(NC(=O)N2CCN(CCc3ccccc3)CC2)cc1
0.0%	2%	-24%	-3	CCOC(=O)C1CCCN(CC(=O)/C=C2/N(C)c3ccccc3C2(C)C)C1 (centres undefined)
-1.4%	.	-15%	.	O=C(NCc1ccc(F)cc1)N1CCN(C(=O)c2ccccc2)CC1
2.0%	-51%	1%	.	COc1ccccc1C(=O)COC(=O)/C=C/c1ccccc1
3.4%	-10%	-7%	-1	COc1ccccc1OCC(=O)Nc1cc(Cl)ccc1Oc1ccccc1
0.7%	3%	-2%	5	Cc1cccc(N2CC(C(=O)OCc3ccc([N+](=O)[O-])cc3)CC2=O)c1 (centres undefined)
-2.0%	-11%	-7%	-17	Cc1ccc(C)c(OCC(=O)Nc2ccc(S(=O)(=O)Nc3ccccn3)cc2)c1
0.3%	.	43%	.	CCCn1c(N)c(N(CCOC)C(=O)CSc2ccccc2)c(=O)[nH]c1=O
-0.2%	-1%	25%	-8	O=C(Nc1cccc([N+](=O)[O-])c1)c1cccc(C(=O)Nc2cccc([N+](=O)[O-])c2)c1
-1.0%	.	-3%	.	O=C(CSc1ncccn1)Nc1ccc(Cl)c(S(=O)(=O)N2CCOCC2)c1
0.7%	3%	24%	1	CC1(C)CC(=O)c2cc(C(=O)N3CCCC(C)(C)C3)c(=O)n(-c3ccccc3)c2C1
0.2%	-36%	10%	13	O=C(Cc1cccs1)Nc1ccc(NC(=O)c2ccco2)cc1
-4.7%	16%	9%	-8	O=C(Nc1nnc(C2CC2)s1)c1ccccn1
1.4%	-3%	-10%	.	CCOC(=O)c1cnc2c(C)c(Cl)ccc2c1NCCCN1CCOCC1
-0.8%	30%	-16%	0	O=C1C(=O)c2ccccc2C(O)=C1CCCCl
0.0%	.	0%	.	O=C(/C=C/c1ccco1)c1cccc([N+](=O)[O-])c1
-4.9%	-8%	2%	10	CCOc1ccc(CCNC(=O)CCc2c(C)nc3ncnn3c2C)cc1OCC
-5.7%	-8%	18%	.	COc1ccccc1-c1nnc(NC(=O)c2ccc(S(=O)(=O)N3CCCC3)cc2)o1
4.8%	-1%	-15%	2	Cn1c(SCC(=O)NNC(=O)Cc2ccccc2)nnc1-c1ccc(Cl)cc1
?	-2%	?	-2	COc1ccc(NC(=O)CN2C(=O)c3cccc4cccc2c34)cc1OC

Given field by field: entries from further up.
CC1(C)CC(=O)c2cc(C(=O)N3CCCC(C)(C)C3)c(=O)n(-c3ccccc3)c2C1
  Rango-impB inh: 0.7% | miR-21 reporter: 3% | Rango release inh: 24% | GLA inh pH 4.5: 1
O=C(Cc1cccs1)Nc1ccc(NC(=O)c2ccco2)cc1
  Rango-impB inh: 0.2% | miR-21 reporter: -36% | Rango release inh: 10% | GLA inh pH 4.5: 13
O=C(Nc1nnc(C2CC2)s1)c1ccccn1
  Rango-impB inh: -4.7% | miR-21 reporter: 16% | Rango release inh: 9% | GLA inh pH 4.5: -8

Further structures
Rango-impB inh	miR-21 reporter	Rango release inh	GLA inh pH 4.5	Molecule
2.1%	3%	?	-12	N/C(CC(=O)Nc1ccc(F)cc1)=N\O
0.2%	-1%	-9%	2	CCNCCOC(c1ccccc1)c1ccccc1
-2.9%	-3%	22%	.	Fc1ccc(/C=N/NC(=S)NCCc2ccccc2)cc1F
5.1%	.	1%	.	Nn1c(SCC(=O)NC2CCCc3ccccc32)nnc1C1CC1 (centres undefined)
-0.8%	9%	14%	-2	CN1CCN(CC(=O)N2c3ccccc3C(C)(c3ccccc3)CC2(C)C)CC1 (centres undefined)
-1.7%	-2%	12%	-5	CCC(c1nnc(SCC(=O)Nc2ccc(C(C)=O)cc2)n1C1CCCCC1)N(C)C (centres undefined)
3.4%	.	-14%	.	CCC1(c2ccccc2)NC(=O)N(CC(=O)NCC2COc3ccccc3O2)C1=O (centres undefined)
0.1%	-44%	-13%	8	CC(=O)Nc1nc(-c2ccc3c(c2)CCN3S(C)(=O)=O)cs1
?	.	-7%	.	CCCCNc1c(-c2ccc(OC)c(SC3CCCCC3)c2)nc2ccc(Cl)cn12
0.3%	-2%	-11%	.	O=C(Nc1nnc(SCC(=O)N2CCCC2)s1)C1CC(=O)N(c2ccc(F)cc2)C1 (centres undefined)
-5.3%	-19%	-11%	-5	O=C(NC1CCCCC1)n1c(=O)oc2ccc(Cl)cc21
0.9%	-4%	-2%	2	CC(C)c1ccc(C2C(C#N)=C(N)Oc3c2oc(CO)cc3=O)cc1 (centres undefined)
?	2%	1%	1	CCOc1ccccc1NC(=O)N1CCC(NC(=O)c2cccc(C)c2)CC1
-1.9%	.	18%	.	O=C(O)CN1C(=O)S/C(=C\c2ccc3c(c2)OCO3)C1=O
5.0%	26%	2%	-6	Cc1cc(C)cc(Nc2nc(-c3ccc(S(=O)(=O)N4CCCC4)cc3)cs2)c1
-0.7%	0%	-7%	3	COc1ccc(CC(=O)OCC(=O)Nc2ccc(N3CCOCC3)cc2)cc1
-4.1%	10%	12%	.	Cc1cccc(N2CCN(C(=O)CNC(=O)c3cccc([N+](=O)[O-])c3)CC2)c1C
-1.6%	-34%	-8%	0	O=C(CSc1cccc[n+]1[O-])c1cc2ccccc2o1
0.4%	7%	-10%	-24	COc1ccc(S(=O)(=O)N2CCOCC2)cc1NC(=O)CN(C)Cc1c(F)cccc1Cl
0.1%	-3%	-10%	6	Cc1cccc(OCC(=O)N/N=C\C=C\c2ccc3c(c2)OCO3)c1C
-3.7%	-4%	-14%	.	CCCc1ccc(OCC(O)CN2CCCC2)cc1 (centres undefined)
1.2%	-3%	3%	12	CCOC(=O)Cn1cnc([N+](=O)[O-])n1
0.0%	.	-11%	.	COc1cc2oc(=O)ccc2cc1-c1c(OC)ccc2ccc(=O)oc12
0.7%	-6%	-7%	6	COc1ccccc1-n1c(C)nnc1SCC(=O)Nc1cc(C)cc(C)c1
-4.6%	-9%	-12%	-27	O=C(Cn1cnc2c(nnn2Cc2ccc(Cl)cc2)c1=O)NCC1CCCO1 (centres undefined)

Pulled by compound from above (five):
Rango-impB inh	miR-21 reporter	Rango release inh	GLA inh pH 4.5	Molecule
-2.9%	-3%	22%	.	Fc1ccc(/C=N/NC(=S)NCCc2ccccc2)cc1F
-1.6%	-34%	-8%	0	O=C(CSc1cccc[n+]1[O-])c1cc2ccccc2o1
0.7%	-6%	-7%	6	COc1ccccc1-n1c(C)nnc1SCC(=O)Nc1cc(C)cc(C)c1
-0.7%	0%	-7%	3	COc1ccc(CC(=O)OCC(=O)Nc2ccc(N3CCOCC3)cc2)cc1
0.3%	-2%	-11%	.	O=C(Nc1nnc(SCC(=O)N2CCCC2)s1)C1CC(=O)N(c2ccc(F)cc2)C1 (centres undefined)

Remaining list, next part:
Rango-impB inh	miR-21 reporter	Rango release inh	GLA inh pH 4.5	Molecule
0.0%	-55%	1%	.	CCC(=O)C1CCCN(C(=O)CCc2nnc(-c3ccc(C(C)=O)s3)o2)C1 (centres undefined)
?	-2%	4%	-8	Cc1ccc(S(C)(=O)=NC(=O)NC(=O)c2c(Cl)cccc2Cl)cc1 (centres undefined)
4.6%	-7%	7%	5	CCCCN(CC)C(=O)Cn1c(=O)sc2ccccc21
-3.8%	0%	-6%	.	O=C(C1CCN(S(=O)(=O)c2ccccc2)CC1)N1CCCCCC1
4.5%	-12%	7%	-12	CCOC(=O)C1=C(N)Oc2ccc3ccccc3c2C1c1cccnc1 (centres undefined)
-3.7%	15%	11%	-1	COc1cccc(CNc2ncnc3cc(Cl)ccc23)c1
?	.	?	.	Cc1ccccc1C(=O)O[C@H]1[C@H](Cc2ccccc2)NS(=O)(=O)[C@H]2CC3C=C[C@]12O3
